Assay outcomes from PubChem.
BJeLR viability: BJeLR cell viability loss, primary screen, luminescence, CellTiterGlo ATP; BJeLR fibroblasts viability, 48 h; HRASV12, hTERT and SV40 LT/ST transformed; viability loss activity score, % (no concentration beside the values); actives 0.64% (n = 30,000); AID 2275, 2010; in the data active = viability loss activity score above about 50%; about a fifth of its hits are not listed in these tables;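 note: higher score means fewer live cells and less ATP luminescence; stock transfer was 50 or 100 nL into about 30 µL; 0% = vehicle wells and 100% = a reference killing control; one replicate is shown; the record names a cut of 85%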
A1 inhib: inducers of caspase activity in MEF A1-2A-BIM cells, primary screen, A1 inhibitor project, cell-based, CaspaseGlo luminescence; caspase-Glo luminescence, 3 h; percent of clofoctol signal, DMSO as zero; caspase activation, % (concentration not given with the values); actives 0.51% (n = 21,000); AID 2241, 2010;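 active = most replicate scores above 10, or exactly half above 10 with mean activity above 10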;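 note: effector caspase 3 and 7 activity cleaving a DEVD luciferin substrate; 50 nL library stock added to about 30 µL; numbers are from one replicate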
* hit, by the source's call; / = not tested or not shown.

Value order – BJeLR viability	A1 inhib
1	C[C@@H]1CN([C@@H](C)CO)C(=O)c2cccc(NS(=O)(=O)c3cccs3)c2O[C@H]1CN(C)S(=O)(=O)c1ccccc1
    -6.6	/
2	COc1ccc(NC(=O)Nc2cccc3c2O[C@H](CN(C)S(=O)(=O)c2ccccc2)[C@H](C)CN([C@@H](C)CO)C3=O)cc1
    1.2	/
3	CCc1ccc(NC(=S)N(CCCN2CCCC2)Cc2ccco2)cc1
    5.3	/
4	COC(=O)c1cc(S(=O)(=O)N2c3ccccc3CC2C)cn1C (stereo not drawn)
    5.2	0.4
5	S=c1oc2ccc(Cl)cc2n1Cc1ccccc1
    1.0	-0.2
6	CC(C)NC(=O)Nc1cccc2c1O[C@H](CN(C)S(=O)(=O)c1ccc(F)cc1)[C@@H](C)CN([C@@H](C)CO)C2=O
    -4.1	/
7	CC(C)NC(=O)Nc1cccc2c1O[C@H](CN(C)C(=O)Nc1ccccc1)[C@@H](C)CN([C@@H](C)CO)C2=O
    4.0	/
8	Cc1c(CCNC2=CC(=O)OC23CCCCC3)c2ccccc2n1C
    0.3	0.0
9	NS(=O)(=O)c1ccc2c(c1)C1C=CCC1C(C1CC=CCC1)N2 (stereo not drawn)
    1.3	/
10	Cc1noc(C)c1S(=O)(=O)Nc1cccc2c1O[C@H](CN(C)C(=O)Nc1ccc(C(F)(F)F)cc1)[C@H](C)CN([C@H](C)CO)C2=O
    1.8	/
11	CC1(C)CC[C@]2(C(=O)OC3OC(CO)C(OC4OC(CO)C(O)C(O)C4O)C(O)C3O)CC[C@]3(C)C(=CCC4[C@@]5(C)CC[C@H](OC6OC(C(=O)O)C(O)C(O)C6O)C(CO)(CO)C5CC[C@]43C)[C@@H]2C1 (stereo partly drawn)
    -1.9	-0.3
12	CC1OC(OC2C(O)C(C)OC(OCC3OC(OC4C(C)OC(Oc5cc(O)c6c(=O)c(O)c(-c7ccc(O)c(O)c7)oc6c5)C(O)C4O)C(O)C(O)C3OC(=O)/C=C/c3ccc(O)cc3)C2O)C(O)C(O)C1O (stereo not drawn)
    -5.9	-0.4
13	O=C1c2ccccc2C(=O)N1CN1CCCCC1
    2.4	-0.4
14	Cc1ccc2cc3cc(C(=O)N4CCN(c5cc(Cl)ccc5C)CC4)oc3nc2c1
    -3.5	/
15	COc1ccc(-c2cc(=O)c3c(O)cc(O[C@H]4O[C@H](CO[C@@H]5O[C@@H](C)[C@H](O)[C@@H](O)[C@H]5O)[C@@H](O)[C@H](O)[C@H]4O)cc3o2)cc1
    18	1.1
16	CC1(O)N(CCc2ccccc2)C(=O)OC12CCCCC2 (stereo not drawn)
    0.6	0.6
17	COc1ccc(S(=O)(=O)Nc2cccc3c2O[C@@H](CN(C)Cc2ccc(Oc4ccccc4)cc2)[C@H](C)CN([C@H](C)CO)C3=O)cc1
    3.3	/
18	Cc1ccc(N2C3=C(C(=O)CC(C)(C)C3)C(c3cnn(C)c3)C3=C2CC(C)(C)CC3=O)cc1
    -2.6	0.6
19	CNc1cc2ncnc(Nc3cccc(Br)c3)c2cc1N
    3.7	5.1
20	Cc1noc(C)c1S(=O)(=O)Nc1ccc2c(c1)C(=O)N([C@@H](C)CO)C[C@@H](C)[C@H](CN(C)C)O2
    1.5	0.1
21	CNC[C@@H]1Oc2ccc(NC(=O)NC3CCCCC3)cc2C(=O)N([C@H](C)CO)C[C@@H]1C
    1.2	-0.8
22	C[C@@H]1CC[C@]2(C(=O)O)CC[C@]3(C)C(=CCC4[C@@]5(C)CC[C@H](O)[C@](C)(C(=O)O)C5CC[C@]43C)C2[C@]1(C)O (stereo partly drawn)
    -2.8	-0.4
23	O=C(NC1CCCC1)C1CC(=O)N(CCc2ccccc2)C1 (stereo not drawn)
    3.6	-0.1
24	COc1ccc(CC(=O)Sc2nc3ccccc3s2)cc1
    -4.2	0.0
25	O=C(NCc1ccccc1)C1CCCN(S(=O)(=O)N2CCCCCC2)C1 (stereo not drawn)
    2.2	1.4
26	Cc1ccc(S(=O)(=O)N(C)C[C@H]2Oc3c(NS(C)(=O)=O)cccc3C(=O)N([C@@H](C)CO)C[C@H]2C)cc1
    2.5	/
27	C[C@H](CO)N1C[C@H](C)[C@H](CN(C)Cc2ccncc2)Oc2c(NC(=O)c3ccncc3)cccc2C1=O
    7.4	/
28	COc1ccc(S(=O)(=O)Nc2cccc3c2O[C@H](CN(C)S(C)(=O)=O)[C@H](C)CN([C@H](C)CO)C3=O)cc1
    -8.2	/
29	C[C@H](CO)N1C[C@H](C)[C@@H](CN(C)Cc2ccncc2)Oc2c(NC(=O)c3nc4ccccc4s3)cccc2C1=O
    -5.2	/
30	C[C@H](CO)N1C[C@H](C)[C@H](CN(C)S(=O)(=O)c2ccc(Cl)cc2)Oc2ccc(NC(=O)Nc3ccc4c(c3)OCO4)cc2C1=O
    0.4	0.1

Grouped by structure, the entries above containing a furan ring, fused or not.
Value order – BJeLR viability	A1 inhib
3	CCc1ccc(NC(=S)N(CCCN2CCCC2)Cc2ccco2)cc1
    5.3	/
14	Cc1ccc2cc3cc(C(=O)N4CCN(c5cc(Cl)ccc5C)CC4)oc3nc2c1
    -3.5	/

Other structures.
Value order – BJeLR viability	A1 inhib
31	c1ccc(OCc2nc3c4c5c(sc4ncn3n2)CCCC5)cc1
    9.1	0.0
32	Nc1nc(SC/C=C/c2ccccc2)nc2sc3c(c12)CCCC3
    -4.1	-0.7
33	C[C@H](CO)N1C[C@H](C)[C@H](CN(C)Cc2ccncc2)Oc2ccc(NC(=O)Nc3ccc(C(F)(F)F)cc3)cc2C1=O
    5.5	0.0
34	Cc1cccc(-n2c(N)cc(=O)[nH]c2=S)c1
    -1.9	-0.1
35	CNC[C@H]1Oc2ccc(NC(=O)Nc3ccccc3)cc2C(=O)N([C@@H](C)CO)C[C@@H]1C
    -1.4	-0.2
36	C[C@@H]1CN([C@H](C)CO)C(=O)c2cccc(NC(=O)c3ccncc3)c2O[C@H]1CN(C)Cc1ccc(Oc2ccccc2)cc1
    -1.3	/
37	C[C@@H]1CN([C@@H](C)CO)C(=O)c2cccc(N(C)C)c2O[C@H]1CN(C)Cc1ccc2c(c1)OCO2
    0.2	/
38	C[C@H](CO)N1C[C@H](C)[C@@H](CN(C)S(C)(=O)=O)Oc2ccc(NC(=O)CCN3CCOCC3)cc2C1=O
    -5.1	-0.3
39	C[C@@H]1CN([C@H](C)CO)C(=O)c2cccc(NC(=O)C3CCCCC3)c2O[C@@H]1CN(C)Cc1ccc(C(=O)O)cc1
    2.2	/
40	CCCN1C(=O)/C(=C/C=C2/Oc3ccccc3N2CCC(=O)O)N(CCO)C1=S
    6.4	-0.3
41	CCOC(=O)Nc1cc(=O)c2ccccc2o1
    23	-0.3
42	COc1ccc(N=C(C)c2c(C(F)(F)F)[nH]n(-c3nc4ccccc4s3)c2=O)cc1OC
    -3.4	-5.9
43	Cc1ccccc1NS(=O)(=O)N(C)C
    -2.4	-0.1
44	C[C@@H]1CN([C@H](C)CO)C(=O)c2cccc(NS(=O)(=O)c3ccc(F)cc3)c2O[C@@H]1CN(C)C
    -1.7	/
45	c1ccc2c(Cc3c[nH]c4ccccc34)c[nH]c2c1
    0.3	-0.4
46	C[C@@H]1CN([C@@H](C)CO)C(=O)c2cccc(NS(=O)(=O)c3cn(C)cn3)c2O[C@H]1CN(C)Cc1ccncc1
    -1.1	/
47	Cc1noc(C)c1S(=O)(=O)Nc1ccc2c(c1)C(=O)N([C@@H](C)CO)C[C@@H](C)[C@@H](CN(C)C(=O)NC(C)C)O2
    -0.4	0.1
48	C[C@@H]1CN([C@@H](C)CO)C(=O)c2cc(NC(=O)CCCN(C)C)ccc2O[C@H]1CN(C)C(=O)Nc1cccc2ccccc12
    4.2	-0.5
49	CCN1C(=O)/C(=C/N(C)c2ccccc2)OC1=S
    2.4	-6.2
50	O=C(NC1CCCCC1)C(c1ccccc1)N1CCc2ccccc21 (stereo not drawn)
    10.0	/
51	C[C@H]1CN([C@@H](C)CO)C(=O)c2cccc(NC(=O)NC3CCCCC3)c2O[C@H]1CN(C)Cc1ccccc1
    5.9	/
52	C[C@@H]1CN([C@@H](C)CO)C(=O)c2cc(NC(=O)C3CCCCC3)ccc2O[C@@H]1CN(C)Cc1ccc(C(=O)Nc2ccccc2N)cc1
    9.2	/
53	CN1C(=O)[C@@]2(Cc3ccccc3)SSS[C@]1(CO)C(=O)N2C
    87*	31*
54	CCc1c(C)sc(NC(=O)c2cccs2)c1C(N)=O
    2.0	-5.0
55	COc1ccc(-c2nc(C)c(CCNS(=O)(=O)c3ccc(Cl)s3)s2)cc1OC
    6.1	0.4
56	CCn1c(NC(=O)COc2cccc(C(F)(F)F)c2)nc2ccccc21
    0.8	-0.9
57	Cc1ccc(S(=O)(=O)Nc2ccc3c(c2)C(=O)N([C@H](C)CO)C[C@@H](C)[C@H](CN(C)S(C)(=O)=O)O3)cc1
    1.7	-0.4
58	COc1ccc(NC(=O)Nc2ccc3c(c2)C(=O)N([C@@H](C)CO)C[C@H](C)[C@H](CN(C)Cc2ccc(C(=O)Nc4ccccc4N)cc2)O3)cc1
    1.2	/
59	C[C@@H]1CN([C@H](C)CO)C(=O)c2cc(NC(=O)Nc3ccc(F)cc3)ccc2O[C@@H]1CN(C)CC1CCCCC1
    -1.5	0.6
60	C[C@H]1CN([C@@H](C)CO)C(=O)c2cc(NC(=O)Nc3ccccc3)ccc2O[C@H]1CN(C)Cc1ccc(Oc2ccccc2)cc1
    -9.2	1.6
61	COc1cccc(C2Nc3cccc4cccc(c34)N2)c1O
    -5.5	/
62	O=C(NCCOC12CC3CC(CC(C3)C1)C2)c1cc2ccccc2oc1=O
    -0.8	0.4
63	Cc1noc(C)c1NC(=O)Nc1ccc2c(c1)C(=O)N([C@H](C)CO)C[C@@H](C)[C@H](CN(C)C)O2
    -1.0	-0.3
64	C[C@H](CO)N1C[C@H](C)[C@@H](CN(C)Cc2ccc3c(c2)OCO3)Oc2ccc(NC(=O)Cc3ccccc3)cc2C1=O
    -1.5	-0.9
65	COc1cccc(CNC(=O)c2ccc3nc(SCc4ccc(F)cc4)n(C)c3c2)c1
    -3.0	-1.1
66	Cc1ccc(CN2C(=O)c3ccccc3Sc3ccc(C(=O)NCCN4CCOCC4)cc32)cc1
    0.4	0.9
67	O=C1NCCCC1C(=O)Nc1cccc(C(F)(F)F)c1 (stereo not drawn)
    -1.8	/
68	C[C@@H]1CN([C@H](C)CO)C(=O)c2cccc(NS(=O)(=O)c3ccc(Cl)cc3)c2O[C@@H]1CN(C)C(=O)Nc1ccc(F)cc1
    -13	/
69	Cc1ccc(C(C)C)c(OCc2ccc(C(=O)Nc3ccccc3C(F)(F)F)o2)c1
    -3.9	/
70	C[C@H](CO)N1C[C@H](C)[C@H](CN(C)Cc2ccc(C(F)(F)F)cc2)Oc2ccc(NS(=O)(=O)c3ccccc3)cc2C1=O
    4.0	0.6
71	COc1cc(OC)cc(C(=O)c2ccc(C(=O)NC3(c4ccccc4)CC3)cc2)c1
    -2.3	1.1
72	OC(CN1CCN(C2c3ccccc3-c3ccccc32)CC1)c1ccccc1 (stereo not drawn)
    0.3	-0.6
73	C[C@@H]1CN([C@@H](C)CO)C(=O)c2cc(NC(=O)CCCN(C)C)ccc2O[C@H]1CN(C)S(=O)(=O)c1ccccc1
    2.2	0.4
74	Cc1ccc(S(=O)(=O)Nc2cccc3c2O[C@@H](CN(C)C(=O)Nc2ccc(C(F)(F)F)cc2)[C@H](C)CN([C@@H](C)CO)C3=O)cc1
    -13	/
75	CCN1C(=O)CSc2ccc(C(=O)NCCc3ccc(OC)c(OC)c3)cc21
    -4.7	0.0
76	COc1ccc(S(=O)(=O)N(C)C[C@@H]2Oc3ccc(NC(=O)Nc4ccc5c(c4)OCO5)cc3C(=O)N([C@H](C)CO)C[C@@H]2C)cc1
    -0.1	1.1
77	CCOc1ccc(-c2nc3ccc(Br)cc3c(C(=O)O)c2C)cc1
    2.9	1.0
78	C[C@H](CO)N1C[C@H](C)[C@@H](CN(C)C(=O)Nc2cccc3ccccc23)Oc2ccc(NC(=O)Nc3ccc(C(F)(F)F)cc3)cc2C1=O
    -1.7	0.7
79	CCCC(=O)Nc1ncnc2c1ncn2[C@@H]1O[C@@H]2COP(=O)(O)O[C@H]2[C@H]1OC(=O)CCC
    -0.5	0.7
80	COc1ccc(N(C(=O)C(C)C)S(=O)(=O)c2cccc3cccnc23)cc1
    8.8	/
81	Cc1ccc(S(=O)(=O)Nc2cccc3c2O[C@H](CN(C)Cc2ccc(-c4ccccc4)cc2)[C@@H](C)CN([C@H](C)CO)C3=O)cc1
    -5.6	/
82	Cc1ccc(S(=O)(=O)N(CCO)c2cc3c(s2)CCCC3)cc1
    -2.7	-0.7
83	C[C@H](CO)N1C[C@H](C)[C@@H](CN(C)Cc2ccc(Oc3ccccc3)cc2)Oc2ccc(NC(=O)CCCCCC(=O)Nc3ccccc3N)cc2C1=O
    0.9	/
84	CC(C)OC(=O)Cn1c2ccccc2c2nc3ccccc3nc21
    -2.0	0.3

Entries 26–28, quoted:
Value order – BJeLR viability	A1 inhib
26	Cc1ccc(S(=O)(=O)N(C)C[C@H]2Oc3c(NS(C)(=O)=O)cccc3C(=O)N([C@@H](C)CO)C[C@H]2C)cc1
    2.5	/
27	C[C@H](CO)N1C[C@H](C)[C@H](CN(C)Cc2ccncc2)Oc2c(NC(=O)c3ccncc3)cccc2C1=O
    7.4	/
28	COc1ccc(S(=O)(=O)Nc2cccc3c2O[C@H](CN(C)S(C)(=O)=O)[C@H](C)CN([C@H](C)CO)C3=O)cc1
    -8.2	/

Exported with each value named: entries from further up.
82. Cc1ccc(S(=O)(=O)N(CCO)c2cc3c(s2)CCCC3)cc1
- BJeLR viability: -2.7
- A1 inhib: -0.7
83. C[C@H](CO)N1C[C@H](C)[C@@H](CN(C)Cc2ccc(Oc3ccccc3)cc2)Oc2ccc(NC(=O)CCCCCC(=O)Nc3ccccc3N)cc2C1=O
- BJeLR viability: 0.9
- A1 inhib: /

Some of the compounds tested; rates above refer to the full screens.
